# AID504770 = growth inhibition of E. coli YBA685, primary screen, V. cholerae RctB inhibitors; E. coli YBA685 rctB-dependent plasmid, OD600 growth, 3 h; active compounds read low; z-score (no concentration beside the values); actives 0.27% (n = 130,000); AID 504770, 2011;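 active = z-score under -2 on both plates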;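 also: wells of about 30 µL received 100 nL stock; score is relative to mean and SD of the test wells; the first replicate is given; strong numbers were not always called active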
# Ba CapD inh = Bacillus anthracis CapD inhibitors, primary screen, biochemical, fluorescence intensity; CapD gamma-glutamyltranspeptidase (Bacillus anthracis Ames Ancestor); purified CapD enzyme, fluorescence intensity read-out; active compounds read low; some hits fall short of the stated cut; z-score (no concentration beside the values); actives 0.23% (n = 140,000);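 active = z-score under -4 in either of two replicates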;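 also: stock transfer was 100 nL into about 40 µL; score is relative to mean and spread of the plate; one replicate is shown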
# Active calls of the source: *; · = not tested or not shown. Outcome played no part in choosing rows; overall some 0.41% were active at least once.
cpd	smiles	AID504770	Ba CapD inh
1	O=C(NCCSCc1cc2cccc3c2n(c1=O)CCC3)c1cccs1	·	1.4
2	CS(=O)(=O)c1ccc(C(=O)N2CCN(c3ccccc3)CC2)cc1	0.9	·
3	O=C(NC1CCS(=O)(=O)C1)/C(=C/c1ccco1)NC(=O)c1ccccc1 (centres undefined)	-0.4	-1.54
4	O=C(c1ccc(Cl)cc1)N1OCC2COc3ccc4ccccc4c3C21 (centres undefined)	·	0.035
5	CC(C)N1C(=O)S/C(=C/c2cc3c(cc2Cl)OCO3)C1=O	-0.1	0.195
6	Cc1cc(NC(=O)COCC(=O)O)ccc1-n1cnnn1	1.2	4.2
7	COc1cccc(CNC(=O)c2nnc(CS(=O)(=O)c3ccccc3)o2)c1	-0.3	0.475
8	Cn1nc(-c2ccccc2)c(/C=N/OCc2ccc(Cl)cc2Cl)c1Cl	·	0.165
9	CC1(C)C(c2ccccc2)=[N+]([O-])C(c2ccc(Br)cc2)N1O (centres undefined)	-1.85	5.84
10	O=C(CSc1nc2ccc(NC(=O)c3ccccc3C(=O)O)cc2s1)Nc1ccc(F)cc1	·	-0.29
11	CCOc1cc(/C=C2\SC(N)=NC2=O)cc(Cl)c1OC(=O)c1ccc(OC)cc1	·	2.3
12	CCOC(=O)C1=C(N)OC2=C(C(=O)CC(c3ccccc3)C2)C1c1ccccc1OC (centres undefined)	·	-0.065
13	O=C1CSC(=O)N1CC(O)CCl (centres undefined)	-0.75	0.34
14	CC(=O)OC1CCN(c2cc(C(F)(F)F)nc3cc(Cl)cc(Cl)c23)CC1	-0.6	0.1
15	N#CC1=C(N)Oc2c(c(=O)oc3ccccc23)C1c1ccc(Cl)c([N+](=O)[O-])c1 (centres undefined)	·	-0.34

# Whole records, quoted from the list. Order of screens: AID504770	Ba CapD inh
# O=C(NCCSCc1cc2cccc3c2n(c1=O)CCC3)c1cccs1 is entered as ·	1.4
# CS(=O)(=O)c1ccc(C(=O)N2CCN(c3ccccc3)CC2)cc1 is entered as 0.9	·
# Cc1cc(NC(=O)COCC(=O)O)ccc1-n1cnnn1 is entered as 1.2	4.2
# O=C(NC1CCS(=O)(=O)C1)/C(=C/c1ccco1)NC(=O)c1ccccc1 (centres undefined) is entered as -0.4	-1.54
# COc1cccc(CNC(=O)c2nnc(CS(=O)(=O)c3ccccc3)o2)c1 is entered as -0.3	0.475

# Of the compounds above, 3 have an aryl methoxy group:
cpd	smiles	AID504770	Ba CapD inh
7	COc1cccc(CNC(=O)c2nnc(CS(=O)(=O)c3ccccc3)o2)c1	-0.3	0.475
11	CCOc1cc(/C=C2\SC(N)=NC2=O)cc(Cl)c1OC(=O)c1ccc(OC)cc1	·	2.3
12	CCOC(=O)C1=C(N)OC2=C(C(=O)CC(c3ccccc3)C2)C1c1ccccc1OC (centres undefined)	·	-0.065

# The list continues:
cpd	smiles	AID504770	Ba CapD inh
16	CCN(Cc1ccccc1)C(=O)CSc1nc2ncccc2o1	-0.3	-0.125
17	CN(C)CCCNc1oc(-c2ccccc2)nc1C#N	-0.35	·
18	O=C(CSc1ncnc2ccccc12)Nc1cc(C(F)(F)F)ccc1Cl	-1.4	-0.515
19	CC(C(=O)NC(Cc1ccccc1)C(=O)OCc1ccccc1)c1ccc(Cl)cc1 (centres undefined)	·	-0.435
20	COc1cccc(C(=O)N2c3ccccc3N3C(c4c(C)c(C)cc(C)c4C)=NON23)c1	·	0.45
21	COc1ccc(/C=N/NC(=O)c2cncc(Br)c2)c(OC)c1C	·	0.12
22	CSc1nn(-c2ccc(C(=O)OCC(=O)N(C)C)cc2)c(=S)s1	-1.2	·
23	O=C(N/N=C/c1ccccc1Sc1ccc(Cl)cc1)c1ccc(OC(F)(F)F)cc1	·	0.875
24	O=C(NC1CCCC1)c1ccc2nc(-c3ccco3)c(-c3ccco3)nc2c1	-0.35	-1.48
25	CC1C(c2ccccc2)OCCN1C(=O)CCN1C(=O)c2ccccc2C1=O (centres undefined)	0	0.085
26	Cc1nc2ncccc2cc1C(=O)NCc1ccncc1	·	-0.18
27	C/C=C/C(=O)NCC1OCCc2ccccc21 (centres undefined)	-0.05	-0.365
28	O=c1[nH]c(=S)[nH]c2c1C1(CCCC1)Cc1ccccc1-2	·	0.865
29	C[C@H]1C[C@@H]2[C@H]([C@@H](O)C[C@@]3(C)[C@H]2CC[C@]3(O)C(=O)CO)[C@@]2(C)C=CC(=O)C=C12	·	-0.545
30	O=C(NCc1ccccc1)c1ccc(Cn2cc(C(F)(F)F)ccc2=O)cc1	·	-0.26
31	CCOC(=O)c1c(CN2CCC(C)CC2)n(-c2ccccc2)c2cc(Br)c(OC(C)=O)cc12	·	-0.015
32	COc1cc2c3c(c1OC)C1(C=CC(=O)C=C1)CC3N(C(=O)CCC(=O)O)CC2 (centres undefined)	-0.35	0.37
33	O=S(=O)(c1c(Cl)cc(C(F)(F)F)cc1Cl)N1CCOCC1	-0.05	0.355
34	COc1ccc(N)cc1N=Cc1ccc(C#N)cc1	0.35	0.135
35	CCN1CCCC1CNC(=O)c1nnc(Cc2ccccc2OC)o1 (centres undefined)	-0.5	0.095
36	CCOc1ccc(N2C(=O)CS(=O)(=O)C2c2ccc([N+](=O)[O-])cc2)cc1 (centres undefined)	·	0.055
37	CC(=O)N1CCC(C(=O)NCc2cc3ccccc3s2)CC1	-0.95	-0.54
38	COc1cccc(CNC(=O)c2cnn3c(C)c(Cc4c(C)cc(C)cc4C)c(C)nc23)c1	1.95	6.77
39	O=C(Nc1ccc2c(c1)oc1ccc(S(=O)(=O)N3CCCC3)cc12)C1CC1	-0.85	8.1
40	O=C(Nc1ccccc1F)C1c2ccccc2C(=O)N2CCc3ccccc3C12 (centres undefined)	0.25	-0.575
41	CC1=NN(C(=O)c2ccc(Cl)cc2)C(O)(c2ccc(Cl)cc2)C1 (centres undefined)	·	-0.3
42	Cc1ccc(C)n1-c1n[nH]c(=S)s1	-1.75	-0.32
43	Cc1c(Nc2nc3nonc3nc2Nc2ccc(F)cc2)c(=O)n(-c2ccccc2)n1C	·	-0.43
44	CC(=O)c1sc(-c2ccc(C(C)(C)C)cc2)cc1NC(=O)c1ccc(Cl)cc1	·	0.525
45	Cc1cc(N)n(-c2nc3ccccc3s2)n1	-0.85	-0.565
46	CCN(CC)S(=O)(=O)N1CCC(C(=O)NCC2COc3ccccc3O2)CC1 (centres undefined)	1.25	0.1
47	N#Cc1ccc(N2C(=O)C3C4c5ccccc5C(c5ccccc54)C3C2=O)cc1 (centres undefined)	·	0.03
48	Cc1cc(COC(=O)CSc2cc(C)c3ccccc3n2)no1	-0.6	·
49	Cc1ccc(C)c(SCC(=O)NC(C)C(c2ccccc2)N2CCOCC2)c1 (centres undefined)	1	0.015
50	COc1ccc(Nc2cc(N3CCCCC3)c3nonc3c2[N+](=O)[O-])cc1	·	0.18
51	CCOc1c(Br)cc(C2C(C(=O)OC)=CN(Cc3ccc(F)cc3)C=C2C(=O)OC)cc1OC	·	58.4
52	COC(=O)C(C)Oc1cc2oc(=O)cc(C)c2cc1Cl (centres undefined)	0.1	·
53	CCC(=O)N=c1sc2c(C)cc(C)cc2n1CC	-0.6	·
54	O=C(O)c1cccc(OC(F)F)c1	1.05	·
55	COc1ccc(Cc2nn3c(-c4ccccc4Br)nnc3s2)cc1	2.05	0.43
56	Cc1ccccc1-c1nnc(SCC(=O)Oc2c(C)cccc2C)o1	-0.7	·
57	COc1ccccc1NC(=O)C(Cc1c[nH]c2ccccc12)NC(=O)Oc1ccccc1 (centres undefined)	·	-0.11
58	CC(C)c1ccc(C(=O)Nc2ccccc2N2CCN(C)CC2)c(C(C)C)c1	-0.4	·
59	CN1C(=O)C(C)(C)N(C(=O)c2cccc([N+](=O)[O-])c2)c2ccccc21	·	-0.42
60	CCOC(=O)N1CCN(C(=O)c2ccc3c(=O)n(-c4cc(C(F)(F)F)ccc4Cl)c(=S)[nH]c3c2)CC1	·	-0.185
61	COc1ccccc1NC(=O)Nc1ccc(S(=O)(=O)N(C2CC2)C2CCN(Cc3ccccc3)CC2)cc1	·	-0.585
62	CC(C)(C)OC(=O)/C(C#N)=C/c1ccc(C#N)cc1	0.3	0.4
63	Cc1ccc(N2C(=O)CC(C(=O)O)C2c2cccs2)cc1 (centres undefined)	-0.7	·
64	CC(C)(C)c1cc2ncnc(N3CCCCC3)c2s1	0.9	0.235
65	O=C(NCc1ccco1)c1ccc(Cn2c(=S)[nH]c3ccc(Br)cc3c2=O)cc1	-0.3	0.26
66	COc1ccc(C2CC(=O)C3=C(C2)NC(C)=C(C(=O)OC(C)C)C3c2cccc([N+](=O)[O-])c2)cc1OC (centres undefined)	·	-0.785
67	CCCn1c(=NC(=O)C(CC)c2ccccc2)c(C(=O)OCC)cc2c(=O)n3ccccc3nc21 (centres undefined)	·	-0.49
68	Cn1c(C(=O)NCC2CCCO2)cc2c(=O)n(C)c3ccccc3c21 (centres undefined)	-0.25	3.86
69	O=c1oc2ccccc2c(O)c1CN1CCCCC1	-0.95	·
70	CCCC1CCc2nc3ccccc3c(C(=O)O)c2C1 (centres undefined)	-0.8	-0.14
71	COc1cc(/C=C2/C(=O)N(c3ccccc3)N=C2C)ccc1OCCOc1ccc(C)cc1	·	-0.5
72	Oc1ccc(C=Nc2cccc(C(F)(F)F)c2)c(O)c1	1.15	-1.65
73	COc1ccc(-c2nnc(NC(=O)c3ccccc3C)s2)c(OC)c1	1.3	-0.16
74	CC(OC(=O)/C=C/c1cccc(Cl)c1)C(=O)N1CCN(C(=O)c2ccco2)CC1 (centres undefined)	1.1	·
75	COc1cccc(OCC(O)CN2CCN(CCN3C(=O)c4cccc5cccc(c45)C3=O)CC2)c1 (centres undefined)	·	14.3

# Later entries
cpd	smiles	AID504770	Ba CapD inh
76	Cc1nc2ccccc2n1CCCOc1ccccc1	-1.15	0.14
77	N#CCSc1nc2nccnc2c(=O)n1CCc1ccccc1	0.1	-0.3
78	CCCOc1ccc(C(=O)CCC(=O)O)cc1	·	-0.66
79	Cc1ccc(S(=O)(=O)Cc2ccc(C(=O)N3CCCC3)o2)cc1	-0.1	-0.395
80	COc1ccc(/C=C/C(=O)OCc2ccccc2)cc1OC	1.15	19.3
81	FC(F)(F)c1cccc(-c2nnnn2-c2cccc(C(F)(F)F)c2)c1	·	-0.305
82	Cn1c(CNC(=O)OC(C)(C)C)nnc1SCc1c(F)cccc1Cl	-0.9	-0.02
83	O=S(=O)(Cc1ccccc1)N(O)c1ccccc1	1.65	-0.08
84	Clc1ccc(-c2csc3ncnn23)cc1	-0.25	0.08
85	CCCc1nc(N2CCCC2)c(C#N)c2c1CCCC2	-0.9	76.4
86	O=C(Nc1ccc(SC(F)F)cc1)c1ccccc1C(F)(F)F	1.35	·
87	N#C/C(=C(/O)CSc1ncnc2c1cnn2-c1ccccc1)c1nc2ccccc2[nH]1	0.95	·
88	O=C(Cc1ccccc1)N1N=C(c2ccc(Cl)cc2)CC1(O)C(F)(F)F (centres undefined)	·	0.875
89	CC(=O)C1=NN(c2ccc(C)cc2)C2(S1)c1ccccc1C(c1ccc(C(C)(C)C)cc1)=NN2c1ccccc1 (centres undefined)	·	-0.585
90	CCC1CCCCN1C(=O)COc1cc2oc(=O)c3c(c2cc1Cl)CCC3 (centres undefined)	-1.15	3.72

# Three compounds from above, ordered by length of the SMILES, rising:
cpd	smiles	AID504770	Ba CapD inh
76	Cc1nc2ccccc2n1CCCOc1ccccc1	-1.15	0.14
86	O=C(Nc1ccc(SC(F)F)cc1)c1ccccc1C(F)(F)F	1.35	·
79	Cc1ccc(S(=O)(=O)Cc2ccc(C(=O)N3CCCC3)o2)cc1	-0.1	-0.395

# (cont.)
cpd	smiles	AID504770	Ba CapD inh
91	O=C1C=C(c2ccccc2)C[C@H](c2cccs2)[C@H]1n1nnc2ccccc21	·	-0.26
92	COc1ccc(CCN2CC(O)=C(c3nc4ccccc4c(=O)[nH]3)C2=N)cc1OC	0.05	·
93	COc1ccc(C2C(C#N)=C(N)N(c3ccc([N+](=O)[O-])cc3)C3=C2C(=O)CCC3)cc1OC (centres undefined)	·	-0.28
94	CC(NCCO)c1ccc2c(c1)OCCO2 (centres undefined)	-0.7	·
95	COC(=O)c1c(NC(=O)C2COc3ccccc3O2)sc2c1CCCC2 (centres undefined)	·	-2.79
96	Cc1ccc(NC(=O)CCN2CC(C)CC(C)C2)cc1 (centres undefined)	2.3	·
97	c1ccc(-c2csnn2)cc1	-1.1	0.18
98	Cc1onc(-c2c(F)cccc2Cl)c1C(=O)NC1CCSC1=O (centres undefined)	-0.2	-1.02
99	CCOCCCN1Cc2c(C(=O)OCC)sc3sc(C(=O)OCC)c(c23)C1	-0.05	·
100	CN(Cc1ccccc1)C(=O)c1ccc(CSc2nc3ccncc3n2Cc2ccccc2)cc1	-0.75	0.185
101	CCOC(=O)c1c(CSc2ccccc2)n(-c2ccccc2)c2cc(Br)c(O)cc12	·	-0.165
102	N#CC(c1ccccc1O)N1N=C(c2ccccc2)CC1c1ccccc1 (centres undefined)	·	3.41
103	Cc1sc2ncn(CC(=O)NCC(=O)N3CCN(c4ccc([N+](=O)[O-])cc4)CC3)c(=O)c2c1C	·	-0.685
104	Cc1nn(C)c2c1c(-c1ccccc1)cc(=O)n2C(C)C(=O)N1CCC2(CC1)OCCO2 (centres undefined)	0.2	0.09
105	COC(=O)C1=C(NC(=O)c2cccc3ccccc23)CCS1	0.4	·
106	Cc1cccc2c1[nH]c1nc(SCC(=O)O)nnc12	·	-1.17
107	COc1cc([N+](=O)[O-])c(OC)cc1SCC(=O)NNC(=S)Nc1cc(C(F)(F)F)ccc1Cl	·	0.85
108	O=C1C2CC=CCC2C(=O)N1CC(=O)N(Cc1nnc(-c2ccc(Cl)cc2)o1)C1CC1 (centres undefined)	-0.25	·
109	CC1CCCC(C)N1/N=C/c1ccccc1C(=O)O (centres undefined)	-0.8	·
110	CC(=O)Oc1ccc(/C=c2/sc3nc(-c4cccc([N+](=O)[O-])c4)nn3c2=O)cc1	·	-0.585

# Screening data from PubChem BioAssay.
